# fixLJ activator: activators of Burkholderia fixLJ two-component system | z-score (test concentration not listed) | 0.3% of 29,000 active | AID 1918990 | B. multivorans fixK-promoter GFP reporter, 18 h; active compounds read high;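 active = replicate mean overnight rise in green fluorescent reporter signal, 3 or more SD over negative controls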;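 also: score is relative to vehicle wells of the plate; 300 nL library stock went into each well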
# * hit, by the source's call; & = joins results of further samples.
# Preview:
Structure	fixLJ activator
O=C(c1ccc(=O)[nH]c1)N1CCC(c2nccn2Cc2cccnc2)CC1	-1.1
Cc1ccc(NC(=O)C2CCN(S(=O)(=O)c3cccc4nonc34)CC2)c(Cl)c1	-1.1
CC(=O)N1CCc2cc(S(=O)(=O)NC(Cc3ccccc3)C(=O)Nc3cc(C)cc(C)c3)ccc21 (stereo not given)	-1.9
CN1[C@@H]2CCC[C@H]1CC(NC(=O)c1nn(C)c3ccccc13)C2 (stereo not given in full)	0.5
CC(=O)c1c(C)nn(-c2ccc(OC(C)C(N)=O)cc2)c1C (stereo not given)	0.88
COc1ccc(CCNC(=O)CCCn2c(=O)c3ccccc3n(CC(=O)Nc3ccc(C)cc3Cl)c2=O)cc1OC	-1.4
COc1ccc(C(CNC(=O)COc2ccc(C)c(C)c2)N2CCCCC2)cc1 (stereo not given)	-1.2

# Main list, from the first entry:
Structure	fixLJ activator
O=C(c1ccc(=O)[nH]c1)N1CCC(c2nccn2Cc2cccnc2)CC1	-1.1
Cc1ccc(NC(=O)C2CCN(S(=O)(=O)c3cccc4nonc34)CC2)c(Cl)c1	-1.1
CC(=O)N1CCc2cc(S(=O)(=O)NC(Cc3ccccc3)C(=O)Nc3cc(C)cc(C)c3)ccc21 (stereo not given)	-1.9
CN1[C@@H]2CCC[C@H]1CC(NC(=O)c1nn(C)c3ccccc13)C2 (stereo not given in full)	0.5
CC(=O)c1c(C)nn(-c2ccc(OC(C)C(N)=O)cc2)c1C (stereo not given)	0.88
COc1ccc(CCNC(=O)CCCn2c(=O)c3ccccc3n(CC(=O)Nc3ccc(C)cc3Cl)c2=O)cc1OC	-1.4
COc1ccc(C(CNC(=O)COc2ccc(C)c(C)c2)N2CCCCC2)cc1 (stereo not given)	-1.2
Cc1ccc(NC(=O)Cn2ncn3c(cc4ccccc43)c2=O)cc1F	-2.4
CC(C)c1ocnc1C(=O)N1Cc2[nH]cnc2CC1C(=O)O (stereo not given)	-0.34
CC(COc1ccccc1)NCc1nc(-c2cccnc2)no1 (stereo not given)	0.76

# In another format: entries from further up
> COc1ccc(C(CNC(=O)COc2ccc(C)c(C)c2)N2CCCCC2)cc1 (stereo not given)
  fixLJ activator: -1.2
> Cc1ccc(NC(=O)Cn2ncn3c(cc4ccccc43)c2=O)cc1F
  fixLJ activator: -2.4

# Other results:
Structure	fixLJ activator
O=C(C1CCCCN1C(=O)C1CC1)N1CC(c2ccncc2)C1 (stereo not given)	-0.34
CCN(C)c1ccnc(N2CCCC(c3nccn3Cc3ccncc3)C2)n1 (stereo not given)	-2
CCS(=O)(=O)Nc1cc(-c2cn3ccc(C)cc3n2)ccc1C	-2
COc1ccc(NC(=O)CSc2nc(-c3cccc(C)c3)[nH]c2-c2ccccc2)cc1OC	0.3
CCOC(=O)c1c(NC(=O)COc2c(C)cc(Cl)cc2Cl)sc2c1CCCC2	-0.31
O=C(CCn1c(=O)c2sccc2n(Cc2cccc(F)c2)c1=O)NCc1ccc2c(c1)OCO2	-1
CC1CCN(Cc2ccc(C(=O)NCCOc3cccc4cccnc34)o2)CC1	-0.7
O=C(Nc1cccc(-c2nc3ncccc3o2)c1)c1ccc(-c2cccc(Cl)c2Cl)o1	0.02
COc1ccc(NC(=O)c2sc3nc(-c4ccc(OC)cc4)cc(C(F)(F)F)c3c2N)cc1	-39
CCOc1ccc(N(C)C(=O)c2oc(=O)c3ccccc3c2-c2ccccc2)cc1	0.89
COc1ccc(NC(=O)C2CCCN(S(=O)(=O)c3cccs3)C2)cc1 (stereo not given)	-0.88
CCc1cccc(C)c1NC(=O)CN(C)S(=O)(=O)c1cccc2nsnc12	-0.36
COc1ccc(NC(=O)c2ccc(NC(=O)CCS(=O)(=O)c3cccs3)cc2)cc1	-2.4
CC(=O)c1cccc(NC(=O)c2ccc(Cl)c(S(=O)(=O)N3CCOCC3)c2)c1	0.49
COc1cccc(COC(=O)c2ccc(-c3nnn(Cc4ccccc4)n3)cc2)c1	-0.9
Cc1ccc(C)c(NC(=O)N2CCc3cc(S(=O)(=O)N4CCC(C)CC4)ccc32)c1	-2
CCc1nc(N)nc(N)c1-c1ccc(Cl)cc1	-0.73
CCNC(=O)CCSc1nnc(-c2ccc(O)cc2)o1	-0.71
Cn1c(=O)oc2cc(S(=O)(=O)NC(Cc3ccccc3)C(=O)Nc3ccc(F)cc3)ccc21 (stereo not given)	-0.15
CC(C(=O)NCc1n[nH]c(=O)[nH]1)N1C(=O)c2cccc3cccc1c23 (stereo not given)	-0.23
COc1ccc(NC(=O)Cn2c(=O)n(CCCCCC(=O)NCc3ccc4c(c3)OCO4)c(=O)c3sccc32)cc1Cl	0.01
CCOc1ccccc1NC(=O)C(Cc1ccccc1)NS(=O)(=O)c1ccc2c(c1)oc(=O)n2C (stereo not given)	-0.21
Cc1ccc2ncc(C(=O)N3CCN(c4ccccc4F)CC3)c(=O)n2c1	-0.43
Cc1cc(C)c2c(CC(=O)Nc3nnc(CC(C)C)s3)coc2c1	-0.29
Cc1ccc(N(CC(=O)NCCc2ccc(Cl)cc2)S(=O)(=O)c2c(C)noc2C)cc1	-0.57
CCc1ccccc1NC(=O)Cn1c(=O)n(-c2ccc(CC(=O)NCC3CCCO3)cc2)c(=O)c2ccccc21 (stereo not given)	-1.6
CCOc1ccc(NC(=O)Cn2nnc(C(=O)OC)c2C(=O)OC)cc1	-1.3
CCOc1ccccc1NC(=O)C(CC)n1c(C(=O)OC)cc2occc21 (stereo not given)	0.53
COc1ccc(-n2cccn2)c(CN2CCN(C(=O)c3ccco3)CC2)c1	0.88
Cc1ccccc1NC(=O)Cn1cc(C(=O)c2ccco2)c2ccccc21	-2.7
COc1ccc(C2C(C(=O)Nc3ccccc3)=C(C)Nc3nc(-c4ccc(Cl)cc4)nn32)cc1 (stereo not given)	-3.2
CCC(C)c1ccc2oc(-c3ccc(NC(=O)c4cc5ccccc5o4)cc3)nc2c1 (stereo not given)	-1.6
Cc1c(Cl)cccc1NC(=O)Cn1cc2c(n1)CCCC2	-0.75
O=C(Nc1ccccc1F)C(Cc1ccccc1)n1cccc1 (stereo not given)	-0.85
O=C(Nc1ccc(OC(F)(F)F)cc1)C1CCCN(S(=O)(=O)c2ccc(Br)s2)C1 (stereo not given)	-1.8
CN(CCn1ccnc1-c1cc2n(n1)CCCNC2)S(C)(=O)=O	-0.86
O=C(NC1COCC1Cc1ccncc1)c1ccc(N2CCCCC2)cc1 (stereo not given)	-2
COc1ccc(-c2cc(CNC(=O)c3cc(CC(C)C)[nH]c(=O)n3)no2)cc1	-0.39
Cc1nc2c(c(C)c1CCC(=O)NCc1ccc(Cl)cc1)c(=O)n(C)c(=O)n2C	0.62
CCC(Sc1nc2c(sc3ccccc32)c(=O)n1CCCC(=O)NC1CCCC1)C(=O)Nc1cccc(OC)c1 (stereo not given)	0.3
CCC(Cn1ccnc1)NC(=O)CCC(=O)Nc1nncs1 (stereo not given)	0.49
COc1ccc(-c2noc(CSc3nc4ccc(C)cc4[nH]3)n2)cc1	-2.6
COc1ccc(NC(=O)CCNS(=O)(=O)c2cccc3nonc23)cc1	-1.7
Cc1n[nH]c(C)c1CCCNC(=O)Cc1ccccc1C(F)(F)F	-0.85
Cc1cccc(C2NC(=O)c3c(sc4c3CCN(C)C4)N2)c1O (stereo not given)	-0.1
COC(=O)Cc1c(C)c2cc3c(c(C)c2oc1=O)OCN(CCc1ccc(F)cc1)C3	-0.6
CCN(C(=O)Cn1c(=O)oc2cc(S(=O)(=O)N3CCCCCC3)ccc21)c1cccc(C)c1	-0.85
Cc1n[nH]nc1C(=O)NCc1nncn1CCc1ccccc1	-0.96
CCOc1ccccc1NC(=O)c1nnn(CC(=O)Nc2ccccc2CC)c1N	-1.8
Cc1ccc2c(=O)cc(C(=O)Nc3c(C)n(C)n(-c4ccccc4)c3=O)oc2c1	-2

# Next part:
Structure	fixLJ activator
CCCOc1ccc(C(=O)Nc2ccc3oc(-c4cccc(Cl)c4Cl)nc3c2)cc1	0.09
COc1ccccc1-c1noc(CCC(=O)Nc2ccc(C)cc2C)n1	0.05
COc1ccccc1NC(=O)Cn1c(=O)n(CCC(=O)NCC2CCCO2)c(=O)c2cc(OC)c(OC)cc21 (stereo not given)	0.41
CCOCCCn1c(=N)c(C(=O)NCc2ccco2)cc2c(=O)n3ccccc3nc21	-1.5
N#Cc1ccc(CN2CCCn3nc(CCC(=O)NCCO)cc3C2)cc1	-1.3
Cc1ccc(CNC(=O)c2cc(=O)c3cc(C)c(C)cc3o2)cc1	-0.84
CCOC(=O)c1cc(-c2ccc(C)cc2)n(CC(=O)Nc2ccc(OC)c(Cl)c2)c1C	-1.8
CCCCNC(=O)CN1C(=O)CSc2ccc(S(=O)(=O)N3CCC(C)CC3)cc21	-0.87
COCC(NC(=O)c1ccccc1-c1ccccc1)c1ccnn1C (stereo not given)	-0.71
CCC(=O)N1CCc2cc(Br)cc(S(=O)(=O)NCc3cccc(OC)c3)c21	-0.86

# Among those listed so far, these have bromine:
Structure	fixLJ activator
O=C(Nc1ccc(OC(F)(F)F)cc1)C1CCCN(S(=O)(=O)c2ccc(Br)s2)C1 (stereo not given)	-1.8
CCC(=O)N1CCc2cc(Br)cc(S(=O)(=O)NCc3cccc(OC)c3)c21	-0.86

# The listing continues:
Structure	fixLJ activator
COc1cccc2c1cc1c(=O)n(CC(=O)N3CCN(c4cccc(Cl)c4)CC3)nc(C)n12	-0.41
Cc1cccc(N(CC(=O)NCCSCc2cccc(Cl)c2)S(=O)(=O)c2ccccc2)c1C	1.4
CNC(=O)c1ccc(C)c(NC(=O)N2CCCN3CCCC3C2)c1 (stereo not given)	0.29
CNS(=O)(=O)c1ccc(OC)c(-c2nnc3c4ccccc4c(C)nn23)c1	-2.1
COc1ccc(CNC(=O)CN(C)S(=O)(=O)c2ccc3nc(C)sc3c2)cc1	0.62
CNc1nc(N2CCCC(c3nccn3Cc3cccnc3)C2)ncc1F (stereo not given)	-1.5
CCn1cc(C(=O)N2CCN(c3ccc(OC)cc3)CC2)c(=O)c2cc(S(=O)(=O)N3CCOCC3)ccc21	0.22
CCCCN(C)CCNC(=O)C1CCCN(S(=O)(=O)c2cccc3nsnc23)C1 (stereo not given)	-1
COC(=O)c1cc(NC(=O)c2sc3ccccc3c2Cl)cc(C(=O)OC)c1	-0.99
COc1ccc(-c2noc(CSc3nnc(-c4ccncc4)n3-c3ccc(C)c(C)c3)n2)cc1	-1.7
CCCN1Cc2cccc(C(=O)Nc3cc(C)cc(C)c3)c2C1=O	0.04
COc1ccc(OC)c(NC(=O)CCc2c(C)nc3c(-c4ccccc4)c(C)nn3c2C)c1	0.57
COCCOc1ccc(CNC(=O)N(C)C2CCN(C)C2)cc1 (stereo not given)	-0.38
O=C1CCc2cc(S(=O)(=O)NCCOc3cccc4cccnc34)ccc2N1	0.99
CCc1ccc(NC(=O)c2nnn(Cc3cccc(C(F)(F)F)c3)c2N)cc1	0.19
CC(C)c1ccc(NC(=O)[C@H]2O[C@@H]3OC(C)(C)O[C@@H]3[C@H]3OC(C)(C)O[C@H]32)cc1	-1.1
CN(C)C(=O)N1CCCn2nc(CNC(=O)c3ccc(Cl)cc3)cc2C1	0.16
CCN(C(=O)c1ccc(-c2ccc(OC)nc2)cc1)C1CCS(=O)(=O)C1 (stereo not given)	-1.1
COc1cccc2c1C1(CCN(C(=O)c3c(C)ncnc3C)CC1)OCC2	0.25
O=C1CN2Cc3c(ccc(Cl)c3Cl)N=C2N1	-2.1&0.06
Cc1cccc(OCC(=O)Nc2c(C)ccc3nsnc23)c1C	0.76
COc1ccccc1C1CN(C(=O)c2cccnc2OC)CC1C(=O)O (stereo not given)	2.3
O=C(c1ccccc1-n1cncn1)N1CCC2(CCOCC2)CC1	0.38
COc1ccc(NC(=O)C(Cc2ccccc2)n2cccc2)c(OC)c1 (stereo not given)	-1.5
COCCN1CCN(C(=O)c2ccc(F)c(F)c2)C2CS(=O)(=O)CC21 (stereo not given)	0.09
COc1ccc(S(=O)(=O)N2Cc3ccccc3CC2C(=O)Nc2ccc(C)cc2C)cc1OC (stereo not given)	-1.1
CCOc1ccc(-c2csc3ncnc(Nc4cccc(O)c4)c23)cc1	-0.2
Cc1ccc(NC(c2nnc(-c3ccccc3)o2)c2ccccc2F)c(Cl)c1 (stereo not given)	0.22
CCC(CO)NC(=O)c1cccc(-c2cc(C)ccc2OCC(N)=O)c1 (stereo not given)	0.71
CCCCCn1c(=O)[nH]c2cc(C(=O)Nc3ccc(OC)c(OC)c3)ccc2c1=O	0.09

# A few values from the entries so far:
# `Cc1ccc(NC(c2nnc(-c3ccccc3)o2)c2ccccc2F)c(Cl)c1` (stereo not given) | fixLJ activator = 0.22
# `CNC(=O)c1ccc(C)c(NC(=O)N2CCCN3CCCC3C2)c1` (stereo not given) | fixLJ activator = 0.29

# The list continues:
Structure	fixLJ activator
CCc1ccc(CN2CCc3c(C(=O)NC(C)(C)CO)csc3C2)nc1	-0.44
CC(C)(C)C(=O)Cn1c(=O)n(-c2ccc(Cl)cc2)c(=O)c2c3c(sc21)CCCC3	-1.1
COc1ccc(OC)c(CNC(=O)c2cc3cc4ccc(OC)cc4nc3o2)c1	-0.06
COc1ccc(Nc2cc(C(=O)NC3CCC(C)CC3)c3ccccc3n2)cc1OC (stereo not given)	-1
O=C(c1ccc2c(c1)N(Cc1ccccc1)C(=O)c1ccccc1S2(=O)=O)N1CCOCC1	-1.3
Cc1nn(C)c(C)c1C(=O)N1CCC2(CCC(=O)N(CCN(C)C)C2)CC1	-1.9
COc1ccc(-n2nnnc2C2CCN(S(=O)(=O)c3ccc(C(C)(C)C)cc3)CC2)cc1	-1.1
CCc1ccc(-n2nc3cc(C)c(NC(=O)c4cccc5ccccc45)cc3n2)cc1	-2.5
Cc1ccc(CCNC(=O)c2cccc(Nc3nc4ccccc4nc3-n3nc(C)cc3C)c2)cc1	-2
COc1cccc(NC(=O)N(Cc2c[nH]c3ccccc23)C2CCCCC2)c1	0.12
CC(Cn1cncn1)NC(=O)c1cccc(-c2cc(NCCO)ncn2)c1 (stereo not given)	-1.8
CCn1ncnc1C(C)NC(=O)N1CCCN(C(=O)c2ccoc2)CC1 (stereo not given)	0.39
CCC(C)Cn1nc(C2CCNCC2)n(Cc2ccccc2)c1=O (stereo not given)	-0.71

# A portion of the library; count on the stated rates, not on these rows.
